# Menin-MLL FL inh: menin-MLL binding inhibition, fluorescein peptide | 290,000 tested, under 10 active | FP activity change, % at 61.4 µM | Fluorescence polarization, fluorescein-MLL peptide displacement from menin | AID 1766; inconclusive = falling polarisation curve, or a change in total fluorescence; inactive = total fluorescence flat and polarisation flat or rising; no compound was filed as active; the % refers to the polarisation; negative = inhibition;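 also: % of control where 0% means no effect; inhibitors lower the polarisation; unlabelled MLL peptide was the positive control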
# TRPV1 potentiator: enhances activation of the human vanilloid receptor TRPV1; TRPV1-expressing cells, Fluo-8 calcium influx, capsaicin EC20 potentiation; host cell line not named in the record; control for the full effect not named in the record; potentiation, % at 8.33 µM; Q8NER1; AID 540277; hit rate 0.02% among 320,000; active means potentiation above 80%; inconclusive means 30% to 80%; inactive means below 30%; also: 0% is about no effect
#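 Cells expressing TRPV1 were dye-loaded with Fluo-8 and read kinetically: 10 s baseline, 3 min after compound (agonist portion), then 2 min after EC20 capsaicin (allosteric enhancer portion). Calcium-bound dye fluorescence at 480/520 nm.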
# TRPML1 inh: human mucolipin-1 channel inhibition; Q9GZU1; AID 624415; hit rate 0.02% among 390,000; TRPML1-inducible cells, Ca2+ dye fluorescence, FDSS; hits give low values; inhibition of EC80 agonist-evoked calcium signal; activity change, negative = inhibition, % (concentration not given with the values); in the data active means activity change below about -50%; inconclusive means about -30% to -50%; inactive means above about -30%;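 also: stimulus is agonist 54-4 at its EC80 concentration; % is scaled to controls: 0 for no effect and ±100 for the full control effect; compound concentration not given in the record; the text of the record puts the active cut at -80%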
# Target sequence (Q9GZU1 whole entry, looked up): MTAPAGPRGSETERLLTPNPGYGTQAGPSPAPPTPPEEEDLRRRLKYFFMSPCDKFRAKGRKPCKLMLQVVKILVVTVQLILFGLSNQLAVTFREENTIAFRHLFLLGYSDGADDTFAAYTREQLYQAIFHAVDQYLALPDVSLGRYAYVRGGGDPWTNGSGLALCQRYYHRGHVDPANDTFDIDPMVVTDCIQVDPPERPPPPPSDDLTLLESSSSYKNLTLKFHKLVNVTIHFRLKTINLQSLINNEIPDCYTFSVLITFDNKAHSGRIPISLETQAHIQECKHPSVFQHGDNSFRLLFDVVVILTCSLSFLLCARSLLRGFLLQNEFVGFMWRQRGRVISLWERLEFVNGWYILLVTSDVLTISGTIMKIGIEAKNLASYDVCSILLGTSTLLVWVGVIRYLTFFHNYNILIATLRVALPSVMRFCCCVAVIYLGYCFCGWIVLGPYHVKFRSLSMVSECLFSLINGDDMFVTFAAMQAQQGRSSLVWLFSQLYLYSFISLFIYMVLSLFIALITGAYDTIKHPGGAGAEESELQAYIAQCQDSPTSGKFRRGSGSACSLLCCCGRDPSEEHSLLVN
#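 Tet-induced TRPML1-DL cells loaded with Ca8 no-wash calcium dye were read kinetically on FDSS. Compound addition was followed by EC80 agonist 54-4 (4 uM final); inhibition was read over 110 s.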
# gsp antag: gsp mutant antagonism; gsp-mutant cells, cAMP HTRF, 30 min; control for the full effect not named in the record; Potency, µM (top dose mostly 76.9 µM), without a hit: top-dose activity change, negative = inhibition, actives largely listed as inhibitors; hit rate 0.4% among 340,000; AID 624288; active = falling curve of any shape with a large fitted effect; inconclusive = falling curve, mostly with a smaller effect; inactive = flat or rising curve; cell line not stated here;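 also: intracellular cAMP measured with PDE inhibitor Ro 20-1724 present during compound exposure; potency is read from the fitted curve at half-maximal effect; % is scaled to controls: 0 for no effect and ±100 for the full control effect; nearly all actives have a fitted effect of over 65% in size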
#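 Measurement of cellular cAMP by homogeneous time-resolved fluorescence following a 30 min compound exposure at 37C. The PDE inhibitor […] was present throughout; the assay buffer was DPBS with 0.05% BSA and 0.005% Tween 20.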
# Sfp PPTase inh: blocks B. subtilis Sfp PPTase activity | Q9F4F7 | Biochemical Sfp PPTase activity, qHTS | Potency, µM, without a hit: max response, negative = inhibition, most hits filed as inhibitors | hit rate 3.5% among 310,000 | AID 1490; active = well fitted inhibition curve with a large enough effect; inconclusive = small, poorly fitted or top-dose-only effect, or another doubt; inactive = no such curve, though single readings can be large or run the other way;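 also: the enzyme is Sfp with the accession as filed and its product quenches rhodamine fluorescence; potency is read from the fitted curve at half-maximal effect; 0% = enzyme reaction without inhibitor and -100% = no enzyme wells; top concentration of the series not given in the record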
#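 Buffer: 50 mM Hepes-Na pH 7.6, 10 mM MgCl2, 0.01% Nonidet P-40, 0.01% BSA. Enzyme 15 nM, pre-exposed to compound 15 min; substrates then added and fluorescence change tracked over 30 min.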
# ClpP mod: qHTS Assay for Activators of ClpP | hit rate 1.9% among 340,000 | Potency, µM (top dose mostly 57.5 µM), without a hit: top-dose activity change, negative = active | AID 651965, 2013 | purified B. subtilis ClpP, FRET peptide cleavage, 20 min; active = well fitted falling curve with a large enough effect; inconclusive = small, poorly fitted or top-dose-only effect; inactive = no such curve, though single readings can be large or run the other way; also: potency is read from the fitted curve at half-maximal effect; the source files actives as falling curves though it sought activators and does not explain the sign; nearly all actives have a fitted effect of over 65% in size; many hits overshoot -100%
# Target sequence (P80244 whole entry, looked up): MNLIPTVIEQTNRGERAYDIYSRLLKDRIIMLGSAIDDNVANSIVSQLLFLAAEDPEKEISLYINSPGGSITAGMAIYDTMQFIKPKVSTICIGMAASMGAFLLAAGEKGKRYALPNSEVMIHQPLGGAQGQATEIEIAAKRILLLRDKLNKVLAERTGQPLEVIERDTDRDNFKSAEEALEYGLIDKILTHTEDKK
#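 FRET quenching reversal measured ClpP activation: 10 microg/mL B. subtilis ClpP at pH 8 with the FRET-FV decapeptide, read at 430 nm after 320 nm excitation. The 20-min minus 0-min signal was scaled between DMSO/no-enzyme wells and ADEP (5.8 microM final).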
# gsp ag: gsp mutant agonism. hit rate 0.13% among 340,000. Potency, µM (series often up to 76.9 µM), without a hit: at the highest dose activation (cAMP increase), most hits filed as activators. gsp mutant cells, cAMP HTRF, 30 min; control for the full effect not named in the record. AID 624287; active = well fitted activation curve with a large enough effect; inconclusive = small, poorly fitted or top-dose-only effect, or another doubt; inactive = no such curve, though single readings can be large or run the other way; cell line not stated here;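 also: phosphodiesterase inhibitor Ro 20-1724 added with compounds to block cAMP breakdown; potency is read from the fitted curve at half-maximal effect; nearly all actives have a fitted effect of over 60% in size; about a fifth of the inactives were tested at one dose only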
#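 Cells stably selected in G418 were plated at 2000/well, grown 16-24 hr, then given compounds in DMSO with the PDE inhibitor […] (300 uM solution added) for 30 min at 37C; cAMP was read by HTRF.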
# * marks the source's active call; other numbers are inactive results; ? = inconclusive; . = no result given; & = joins results of further samples; [ ] = another dose, or the depositor's remark.
SMILES,Menin-MLL FL inh,TRPV1 potentiator,TRPML1 inh,gsp antag,Sfp PPTase inh,ClpP mod,gsp ag
CCOC(=O)C1CCCN(c2cc(=O)n(-c3ccccc3Cl)c(=O)[nH]2)C1 (centres undefined),4.4,6,-4,2%,?,-2.1%,-4%
CCOC(=O)C1=C(C)NC(=O)C(C(N)=O)C12CCCCC2 (centres undefined),-2.9,13,-6,7%,25%,-1.0%,-38%
CC(=O)Nc1ccc(NC(=O)CSc2nc3ccccc3nc2N2CCC(C)CC2)cc1,-1.5,0,5&-5,?,-8%,-0.1%,7%[15.4 µM]
CCOC(=O)C1=C(CNC(C)(C)CC(C)(C)C)NC(=O)NC1c1cccc([N+](=O)[O-])c1 (centres undefined),1.1,-2,.,-14%,15%,0.5%,-3%
COc1cn(-c2ccccc2)nc1C(=O)OCC(=O)Nc1ccc(C)c(C)c1,.,9,-7,12%,.,-24%,14%
COc1ccc(CN(C)C(=O)C2CCN(C(=O)Nc3ccccc3)CC2)cc1OC,.,0,-6,4%,.,0.1%,-12%
Cc1ccc(C(=O)N/C(=C/c2ccc(-c3ccc(Br)cc3)o2)C(=O)NC2CCS(=O)(=O)C2)cc1 (centres undefined),5.7,17,-10,-11%,6%,18%,18%
O=C1/C(=C/c2ccc(C(=O)O)cc2)CCC/C1=C\c1ccc(C(=O)O)cc1,4.3,6,9,4%,-26%,-2.3%,-2%
CCOc1ccc(NC(=O)C(C)SC(N)=O)cc1 (centres undefined),-1.5,2,6,7%,12%,0.3%,-3%
CN(C)c1ccc(/C=N/NC(=O)c2nnn(-c3nonc3N)c2CN(C)c2ccccc2)cc1,3.0,2,4,5%,8%,?,?
C[C@@H]1CN([C@H](C)CO)C(=O)CCCn2nncc2CO[C@@H]1CN(C)S(=O)(=O)c1cccs1,.,.,-3,.,.,1.4%,-36%
Cc1ccsc1/C=C/c1ccc2cccc(O)c2n1,-0.3,4,3,-19%,50µM*,-3.0%,-46%[inhibitor]
C#CCNC(=O)C1=C[C@H](c2ccc(C(F)(F)F)cc2)C[C@H](OCc2ccc(CO)cc2)O1,?,10,5,-2%,9%,-5.7%,?
COc1ccc(Oc2ccc(N/C=C/C(=O)C(C)(C)C)cc2)cc1,2.2,-3,24,45%[activator],?,-4.3%,-25%
Cc1ccc(S(=O)(=O)N(C)C)cc1NC(=O)c1ccc2ccccc2n1,-6.8,?,35,-21%,11%,-3.6%,-19%
Cc1ccc(C(=O)c2c[nH]c3c(F)cc(F)cc3c2=O)cc1,3.4,23,46,2%,-3%,-0.6%,1%
COc1ccc(S(=O)(=O)Nc2ccc(N(C)C(C)=O)cc2)cc1,0.4,30,7,-5%,9%,-1.4%,-10%
O=C1C(=O)N(Cc2ccccc2)C(c2cccc(O)c2)/C1=C(\O)c1ccc2c(c1)OCCO2 (centres undefined),5.6,12,6,5%,0%,0.3%,?
COc1ccc(NS(=O)(=O)c2ccc(N3CCCC3)c(N)c2)cc1,?,14,16,-10%,-9%,.,-9%
CC/C(=C/c1ccccc1)c1cccc2[nH]c3c(OC)cccc3c12,-0.3,2,-3,-11%,27%,4.4%,.
CCN1CCc2c(OCc3ccc(C(=O)OC)o3)cccc2C1=O,0.0,12,-5,-1%,-3%,.,-20%[15.4 µM]
COc1cc(C(=O)Oc2ccc3ccc(O)cc3c2)cc(OC)c1OC,-8.6,-14,20,-4%,-1%,-0.3%,-11%
COc1ccc(-c2cc(C(=O)N3CCN(c4ccccc4O)CC3)c3ccccc3n2)cc1OC,1.0,-2,8,-16%,4%,-11%,-17%
Cc1ccc(CN2CCC(n3nccc3NC(=O)C3CCOC3)CC2)cc1C (centres undefined),.,-5,-13,4%,19%,1.1%,-55%[inhibitor]
CCn1nnnc1NCc1ccc(OCc2ccc(F)cc2Cl)c(OC)c1,0.1,-2,12,-3%,-3%,-3.7%,-39%[inhibitor]
COc1ccc(/C=C/C(=O)NCCSCc2ccco2)cc1OC,1.8,28,-24,-4%,-11%,-26%,-22%
O=C(c1ccc(N2CCOCC2)c([N+](=O)[O-])c1)N1CCN(Cc2ccccc2)CC1,.,-2,0,8%,12%,.,-1%[15.4 µM]
CC(=O)C[C@@H](O)CC(=O)[C@@H]1OC(=O)CC/C=C\Cc2ccccc21,.,-22,-10,4%,.,-2.4%,.
COc1cc(CC(=O)Nc2nc(C)cs2)cc(OC)c1OC,-5.3,11,-14,3%,11%,.,-9%
CCOc1ccc(OCC)c(-c2c(=O)n(OCc3ccccc3Br)c3ccccc3[n+]2[O-])c1,0.8,4,9,-11%,17%,0.4%,12%
Cc1ccc(C(=O)NCC(=O)OCC(=O)NC(C)c2ccccc2)s1 (centres undefined),-0.6,0,-1,-11%,14%,-0.4%,-12%
Cc1cc(-n2ccnc2)n2c(nc3ccccc32)c1C#N,12,-1,16,4%,24%,-15%,17%
O=C(CSCCN1C(=O)c2ccccc2C1=O)Nc1ccc2ccccc2c1,6.3,6,7,-6%,-8%,-3.5%,3%[15.4 µM]
Cc1ccc([C@@H]2C[C@H]3[C@@H](CN2S(=O)(=O)c2ccc(Cl)cc2)C(=O)C[C@@H](c2cccc4ccccc24)N3S(=O)(=O)c2ccc(C)cc2)cc1,.,.,8,.,.,-1.9%,?
COc1cc(NC(=O)COC(=O)/C=C/c2ccc(O)c(OC)c2)cc(OC)c1,4.0,0,-5,.,8%,.,-5%[15.4 µM]
COc1ccc(N2CCN(C(=O)CCNS(=O)(=O)c3ccccc3)CC2)cc1,1.0,9,0,-2%,21%,.,2%[15.4 µM]
Cc1cc(CN(C)C(=O)c2ccc(OC3CCN(Cc4ccccn4)CC3)cc2)on1,.,4,30,8%,3%,0.6%,4%
O=C(Nc1nccs1)c1ccc(COc2ccccc2Br)o1,2.1,-7,-3,-10%,9%,-8.9%,-31%
O=C(COC(=O)c1cccc(Br)c1)Nc1cccc2c1C(=O)c1ccccc1C2=O,0.7,4,-16,15%,5%,.,9%[15.4 µM]
Cc1ccc(C(=O)CSc2nnc3c4ccccc4nc(Cc4ccccc4)n23)cc1,4.8,-4,-13,2%,8.9µM*,.,0%[15.4 µM]
Cc1cccc(OCC(=O)OC2CCN(C)CC2)c1,0.4,6,-6,-2%,16%,-1.0%,11%
C#CCCOC(=O)N1C2=NC(C(=O)OC)=C(C(=O)OC)[C@@H]3N(C)c4ccccc4[C@]23C[C@H]1C(=O)OC,-1.9[11.7 µM],?,-4,-1%,-7%&2%,1.7%,.
Cc1cc(C)c(-c2noc(C(=O)OC(C)(C)C)c2C(=O)OC(C)(C)C)c(C)c1,-4.1,14,-3,4%,25%,-1.1%,-29%
Cc1cc(OCC(F)(F)C(F)(F)C(F)(F)C(F)(F)C(F)(F)C(F)F)nc(N)n1,2.5,-3,-8,-22%,28%,1.2%,?
Cc1nc2nc(-c3cccnc3)[nH]n2c(=O)c1C,-2.2,12,0,3%,24%,-0.2%,?
CCSCCOC(=O)C1=C(C)NC2=C(C(=O)CCC2)C1c1coc2ccccc2c1=O (centres undefined),-1.2,-3,-4,17%,13%,4.1%,?
COC(=O)c1ccc(NC(=O)CSc2ccccc2)cc1,3.8,2,-6,10%,1%,-1.4%,8%
CCCCc1ccc(-c2ccc(Br)cc2)nc1,3.2,-10,53,5%,-29%,0.2%,30%
CC1CC(C)CN(c2nc3c(c(=O)n(C)c(=O)n3C)n2CCSc2nc3ccccc3o2)C1 (centres undefined),.,.,-8,4%,.,-0.1%,-9%
CC(NC=O)c1nc2ccccc2n1CCc1ccccc1 (centres undefined),-2.9,-10,.,2%,6%,0.4%,-6%
C#CCO[C@@H]1C[C@H](n2ccc(NC(=O)c3ccccc3)nc2=O)O[C@@H]1CO,1.2,-5,0,2%,10%,-2.0%,.
c1ccc(Nc2ccccn2)nc1,0.9,2,-10,7%,-1%,-5.8%,23%
CCOc1ccc(C(=O)NN2CCOCC2)cc1,-8.0,1,-5,8%,-2%,-6.2%,?
COc1cccc(NC(=O)CN(C)C(C)C(=O)Nc2ccc(S(=O)(=O)N3CCOCC3)cc2)c1 (centres undefined),0.4,-3,5,-6%,0%,-1.9%,26%
C=CCOc1cccc(C2/C(=C(/O)c3ccc(F)cc3)C(=O)C(=O)N2CCN2CCOCC2)c1 (centres undefined),5.8,11,2,-3%,9%,0.3%,-13%
CN(C)C(/C=C/Nc1ccc([N+](=O)[O-])cc1)=C(C#N)C#N,3.9,?,2,-2%,1%,.,-1%[15.4 µM]
COC(=O)c1ccc(NC(=O)CCN2CCCCC2)cc1,5.3&4.0,?,-5&9,7%&-1%,1%&14%,-0.8%&-1.1%,11%&-26%
Nc1cc[n+](CC(=O)c2ccccc2)cc1,-5.1,-6,.,5%,14%,-0.4%,-42%[inhibitor]
COc1ccc([C@H]2CC(=O)C=C(c3ccc(CNC(=O)OC(C)(C)C)cc3)C2)cc1,.,-3,0,35µM*,.,-1.5%,10%
CC(C)(C)C(=O)[C@@H]1[C@@H]2C(=O)N(c3ccc4c(c3)OCCO4)C(=O)[C@@H]2C2c3ccccc3C=CN21 (some centres undefined),6.5,13,15,-6%[15.4 µM],-15%,0.2%,?

# Remaining list, next part:
SMILES,Menin-MLL FL inh,TRPV1 potentiator,TRPML1 inh,gsp antag,Sfp PPTase inh,ClpP mod,gsp ag
Cc1ccc(S(=O)(=O)N2CCN(c3cnn(-c4ccccc4)c(=O)c3Cl)CC2)cc1,5.7,3,-11,6%,22%,1.0%,5%
NNc1nc(-c2ccccc2Cl)c2cc(Br)ccc2n1,4.4,-7,0,-7%,?,-0.6%,-5%
CCc1ccc(C(=O)CSc2nc3ccccc3c(=O)[nH]2)cc1,0.9,11,-3,5%,4%,-1.0%,10%
COc1ccc(CNC(=O)N2CCN(c3ccccc3OC)CC2)cc1,4.3,-3,-9,13%,24%,.,-3%[15.4 µM]
C=CCC[C@@H](Cc1ccc(F)cc1)C(=O)OC[C@@H](Cc1ccccc1)NC(=O)[C@H](CC=C)CC(=O)NCCO,.,.,-14,-2%,.,1.6%,.

# Screening results from PubChem.
